Screening results as filed in PubChem.
Calb FLC: affects C. albicans growth with fluconazole; growth inhibition, % (concentration not given with the values); AID 1979; 300,000 tested, 0.57% active; C. albicans CaCi-2 (fluconazole-resistant clinical isolate) + fluconazole, Alamar Blue growth, 48 h;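 active = most replicates above 75%; inconclusive = exactly half above 75%; inactive = most below 75%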;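 note: all wells also contain fluconazole at 8 µg/ml as a sub-toxic cotreatment; 0% = median of DMSO wells and 100% = median of geldanamycin control wells; wells of about 8 µL received 7.5 nL stock; the first replicate is given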
Ecoli rRNA inh: selective bacterial rRNA inhibition in E. coli | 350,000 tested, 1.6% active | GFP signal change (wild-type ribosome), % (test concentration not listed) | E. coli WT GFP vs humanized-ribosome RFP mutants, fluorescence, 24 h; hits give low values; DMSO median 0, no signal -100;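 active = significant combined selectivity score with lowered wild-type GFP, culture density cut under 30%, mutant RFP and density less affected; inactive = any of these conditions unmet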; note: one replicate is shown; some compounds called inactive have numbers as strong as hits
RanGTP-Imp inh: disruptors of Ran-importin-beta complex formation – biochemical, FRET, CFP-Ran, YFP-importin-beta, homogeneous, primary screen; cell-free CFP-Ran/YFP-importin-beta FRET ratio; inhibition, % (test concentration not listed); 300,000 tested, 1.1% active;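 active = most replicates above 15%; inconclusive = exactly half above 15%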;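 note: 0% = DMSO wells and 100% = Ran loaded with GDP instead of GTP; wells of about 40 µL received 100 nL stock; the first replicate is given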
AF4-AF9 inh: inhibitors of human MLL-AF4/AF9 interaction; P42568; 350,000 tested, 0.47% active; AlphaScreen, biotin-AF4 peptide binding to FLAG-AF9; inhibition, % at 10 µM;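 active = every replicate reaching a set inhibition limit, whatever the replicate mean, cut at about 25% in these data; inconclusive = mean inhibition reaches that limit but some replicates miss it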;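 note: 0% = plate neutral control median and 100% = total signal loss; the record names both 10 and 1 µM as test concentration; the first replicate is given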
Target sequence (P42568 whole entry, looked up): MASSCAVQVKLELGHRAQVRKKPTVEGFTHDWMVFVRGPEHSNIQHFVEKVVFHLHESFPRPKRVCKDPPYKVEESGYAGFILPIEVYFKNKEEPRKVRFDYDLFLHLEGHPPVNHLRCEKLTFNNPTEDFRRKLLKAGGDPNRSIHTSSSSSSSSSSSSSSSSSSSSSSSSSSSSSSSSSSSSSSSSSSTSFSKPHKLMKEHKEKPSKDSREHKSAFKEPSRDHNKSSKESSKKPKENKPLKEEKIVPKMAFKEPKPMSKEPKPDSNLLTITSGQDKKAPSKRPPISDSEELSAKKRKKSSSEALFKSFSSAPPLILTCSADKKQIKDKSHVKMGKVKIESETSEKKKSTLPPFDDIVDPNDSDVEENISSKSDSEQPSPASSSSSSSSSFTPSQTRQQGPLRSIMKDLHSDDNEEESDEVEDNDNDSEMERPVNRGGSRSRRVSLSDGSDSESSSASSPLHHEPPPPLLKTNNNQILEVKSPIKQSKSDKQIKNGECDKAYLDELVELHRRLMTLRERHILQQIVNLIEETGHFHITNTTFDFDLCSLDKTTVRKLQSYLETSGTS
Beta apoptosis: blocks beta cell apoptosis; INS-1E cytokine-induced death, ATP luminescence, 48 h; percent of positive-control rescue, neutral wells zero; protection from apoptosis, % (test concentration not listed); 300,000 tested, 0.8% active;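 active = all replicates at 75% or more, or half of them and the mean; inconclusive = half reach 75% but not the mean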;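 note: 0% = cytokine-treated negative control wells and 100% = positive control rescue; higher means more ATP so stronger rescue from cytokine killing; wells of about 40 µL received 100 nL stock; the first replicate is given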
ALR H2O2 inh: human ALR oxidase inhibition via reduced H2O2. P55789. purified ALR, DTT oxidation, H2O2 HRP-luminol luminescence. inhibition, % (concentration not given with the values). 290,000 tested, 3.8% active;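 active = mean and each replicate at 75% or more; inconclusive = only one of the two met; inactive = neither met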;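 note: stock transfer was 7.5 nL into about 7.5 µL; 0% = neutral wells and 100% = wells with inactivated enzyme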
Target sequence (P55789 whole entry, looked up): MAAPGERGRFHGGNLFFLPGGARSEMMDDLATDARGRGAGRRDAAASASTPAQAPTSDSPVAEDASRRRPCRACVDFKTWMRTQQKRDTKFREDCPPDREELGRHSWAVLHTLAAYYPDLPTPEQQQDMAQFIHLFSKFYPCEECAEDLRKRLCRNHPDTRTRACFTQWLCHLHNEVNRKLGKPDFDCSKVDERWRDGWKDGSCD
FGF22 binding: binders of recombinant human FGF22 by thermal shift; Q9HCT0; SYPRO orange fluorescence; percent of sucrose octasulfate shift, DMSO zero; calls only at 9.99 µM; 340,000 tested, 1.5% active; AID 651658;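 active = melting point raised past a set limit in the mean and every replicate; inconclusive = no clear call; three in four hits are not shown here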
Target sequence (Q9HCT0 whole entry, looked up): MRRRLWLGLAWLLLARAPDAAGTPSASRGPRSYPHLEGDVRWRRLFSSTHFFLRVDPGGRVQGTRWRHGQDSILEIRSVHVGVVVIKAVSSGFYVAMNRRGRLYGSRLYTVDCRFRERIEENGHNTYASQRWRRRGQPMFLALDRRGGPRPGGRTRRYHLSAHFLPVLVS
T cruzi repl: T. cruzi replication inhibition. T. cruzi beta-gal in NIH3T3, luminescence, 90 h. inhibition, % (concentration not given with the values). 300,000 tested, 1.4% active. AID 1885;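 active = mean inhibition across valid replicates above about 55%, limit read from the data; inconclusive = mean below that limit but half or more replicates reach it; inactive = mean below it, under half of replicates reach it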;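 note: signal also drops with host cell toxicity which is not excluded here; 0% = plate median of DMSO wells and 100% = zero luminescence signal; higher percent means less beta-gal luminescence so fewer parasites; stock transfer was 50 nL into about 50 µL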
Ecoli rRNA inh OD600: further read-out of Ecoli rRNA inh, marked with its call; OD600 change, %; measured here: OD600 growth;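 optical density of the mix in the first replicate; 0 = DMSO median and -100 = no signal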
Ecoli rRNA inh RFP: recorded beside Ecoli rRNA inh, whose call it bears; RFP signal change, %; measured here: RFP humanized mutant strains;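 first replicate; 0 = DMSO median and -100 = no signal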
Starred values were filed as active, the others as inactive; i = inactive; ? = inconclusive; . = not tested or not shown. Some of the compounds tested. The share of hits here may be higher or lower than overall.

SMILES	Calb FLC	Ecoli rRNA inh	Ecoli rRNA inh OD600	Ecoli rRNA inh RFP	RanGTP-Imp inh	AF4-AF9 inh	Beta apoptosis	ALR H2O2 inh	FGF22 binding	T cruzi repl
C=CCN(c1ccc(Cl)cc1)S(=O)(=O)c1cccc(C(=O)O)c1	39.1	-29.4	-52.5	-13.4	7.0	-2.5	-3.8	-1.9	i	-0.3
O=C(CNC(=O)c1ccc(Br)o1)OCc1ccc(Br)cc1	.	-17.0	-24.4	1.3	.	-5.1	-2.2	-3.5	i	.
Cc1cc(C)n(C(=O)c2cc([N+](=O)[O-])cc([N+](=O)[O-])c2)n1	9.0	6.5	11.5	1.0	-0.6	3.9	-2.8	-52.9	i	-2.6
COc1ccccc1OCCn1c(=O)sc2ccccc21	-4.7	.	.	.	0.5	.	-5.0	5.9	.	11.0
CCOC(=O)Cc1csc(SCn2nnc3ccccc3c2=O)n1	7.7	.	.	.	3.9	.	-0.5	-12.1	.	0.1
CCc1ccc([C@@H]2CC=C(C(=O)O)[C@H](c3ccc(Br)cc3)N2S(=O)(=O)c2ccc(C)cc2)cc1	.	-2.0	-5.1	1.6	.	-0.6	1.5	.	i	.
CN1CCN(C(=S)NC(CC(=O)c2ccccc2)c2ccccc2)CC1 (stereo not drawn)	-1.7	-2.5	0.8	-0.7	-2.4	0.0	-0.3	-4.7	i	7.2
Cc1ccccc1N=C1NC(=O)C(CO)(CO)S1	7.1	6.0	4.8	-0.6	1.8	1.5	0.0	-5.4	i	-2.6
O=C(C1CCC(CNc2c(N3CCOCC3)c(=O)c2=O)CC1)N1CCN(c2ccccc2)CC1 (stereo not drawn)	.	-1.2	1.5	-0.8	.	40.4*	.	87.5*	i	.
Cc1ccc(OCCNC(=O)/C=C/c2ccccc2)cc1	-19.5	-1.5	6.7	-6.6	-1.5	1.6	-3.8	-14.4	i	-1.0
O=C(O)c1sccc1Oc1ccc(NS(=O)(=O)c2ccc(Cl)cc2)cc1	4.1	-20.6	-29.9	-3.5	0.0	-2.3	-2.3	.	i	-4.6
CCOc1cc(-c2nc(-c3ccc(OC)cc3)no2)cc(OCC)c1OCC	-8.9	.	.	.	4.7	.	1.2	-3.0	.	1.2
Cc1cccc([N+](=O)[O-])c1NC(=O)COC(=O)C1CC2CCCC(C1)C2=O (stereo not drawn)	-1.3	5.1	9.6	-1.3	0.6	-2.5	0.2	-7.1	i	-15.0
CC1(C)C(Cl)C(=O)C(C(=O)c2ccccc2)C(=O)C1Cl (stereo not drawn)	3.7	2.8	-1.1	0.8	3.2	1.0	-2.8	-0.6	i	-1.8
CC1CN(C2CC(C)(C)NC(C)(C)C2)CCC1=O (stereo not drawn)	-5.3	.	.	.	?	.	.	-8.1	.	-8.3
CCOc1ccc(NC(=O)C2CC(=O)N(CCc3ccc(OC)c(OC)c3)C2)cc1OCC (stereo not drawn)	.	5.5	4.3	0.3	.	-29.8	-1.5	-20.1	i	.
COc1ccc(C(=O)Nc2ccc(OCC(=O)N3CCOCC3)cc2)c(OC)c1OC	-5.1	13.1	2.1	0.2	-3.6	1.7	.	-8.8	i	-15.3
CCN(CC)c1cccc(OCC(=O)N2c3ccccc3CC2C)c1 (stereo not drawn)	.	-19.8	-46.4	-8.0	.	13.4	6.4	98.2*	i	.
COc1cccc(C(=O)NCC(=O)OCC(=O)c2ccccc2)c1	-4.6	.	.	.	0.4	.	3.5	-10.4	.	-7.3
COc1cccc(-c2nc(CS(=O)(=O)CC(=O)NC3CCCc4ccccc43)c(C)o2)c1 (stereo not drawn)	-3.8	-10.9	-31.8	-1.1	-7.4	-2.1	3.3	89.4*	i	-8.1
COc1cc(NC(=O)CCCOc2ccc(Cl)cc2Cl)c(C(=O)O)cc1OC	16.8	-30.9*	-15.9*	1.4*	1.5	-11.6	-1.5	1.0	i	?
Cc1ccc(SCC(=O)Nc2ccc(-c3nnc(-c4ccco4)o3)cc2)cc1	26.2	.	.	.	5.7	.	-13.5	-15.0	.	28.1
Cc1nc2ccc(NC(=O)c3ccc(=O)[nH]c3)cc2s1	-21.0	4.5	13.9	0.3	5.0	1.5	-1.2	-1.8	i	-9.4
Cc1csc(NC(=O)CSc2nsc(SCC(=O)Nc3nc(C)cs3)c2C#N)n1	-28.9	.	.	.	-5.4	.	0.2	70.7	.	12.1
COc1cccc(CC(=O)NCCCSc2ccccc2)c1	-2.8	-1.6	9.4	-4.4	2.3	-1.0	0.1	-4.5	i	-13.8
O=c1[nH]c2ccccc2nc1/C=C(\O)c1cccs1	-18.7	.	.	.	.	.	6.3	0.1	.	7.6
C/C(CC(=O)Nc1cccc(F)c1)=N\NC(=O)c1ccncc1	-2.5	-2.9	3.7	0.2	4.9	-9.2	-1.1	46.6	i	8.8
CC(C)(C)C(=O)COc1ccccc1[N+](=O)[O-]	6.7	4.9	4.7	-0.6	2.9	-3.8	-7.8	-1.3	i	-19.5
Cc1ccc(CCN2C(Nc3ccccc3)=NC[C@@H]2C)cc1	.	7.5	12.7	-0.9	.	4.0	-0.1	-1.5	i	.
CC(=O)c1ccc(NC(=O)C(C)Sc2n[nH]c(-c3cccnc3)n2)cc1 (stereo not drawn)	-1.1	-4.9	-0.8	-0.7	1.2	-1.5	2.1	2.2	i	-7.5
Cc1ccc(C2C(C(=O)c3ccco3)=C(O)C(=O)N2c2nnc(C)s2)cc1 (stereo not drawn)	0.3	.	.	.	0.3	.	-2.9	.	.	0.8
COc1ccccc1OCCn1c(SCC(=O)O)nc2ccccc21	16.3	-6.2	-13.4	-0.1	-0.3	-2.2	-8.7	-0.8	i	-10.4
OCCC1CN(C2CCN(c3ccccc3F)CC2)CCN1Cc1ccccc1 (stereo not drawn)	-2.7	-10.7	1.2	1.4	11.3	.	-9.0	.	i	8.2
COc1ccc2c(Cl)c(-c3nnc(SCC(=O)c4ccccc4)n3C)sc2c1	-2.9	.	.	.	?	.	0.6	1.7	.	48.9
CCO[C@@H]1OC(C(=O)O)=C[C@H](c2ccc(Br)cc2)[C@H]1CCCO	0.4	22.1	12.2	11.9	-1.9	-4.1	-3.0	.	i	-13.4
O=C(c1ccco1)N1CCN(C(=O)c2cc(-c3ccccn3)nc3ccccc23)CC1	-0.7	.	.	.	4.4	.	-4.9	-28.1	.	-3.3

The final 3 entries of the part before are carried over, then new ones follow:
SMILES	Calb FLC	Ecoli rRNA inh	Ecoli rRNA inh OD600	Ecoli rRNA inh RFP	RanGTP-Imp inh	AF4-AF9 inh	Beta apoptosis	ALR H2O2 inh	FGF22 binding	T cruzi repl
COc1ccc2c(Cl)c(-c3nnc(SCC(=O)c4ccccc4)n3C)sc2c1	-2.9	.	.	.	?	.	0.6	1.7	.	48.9
CCO[C@@H]1OC(C(=O)O)=C[C@H](c2ccc(Br)cc2)[C@H]1CCCO	0.4	22.1	12.2	11.9	-1.9	-4.1	-3.0	.	i	-13.4
O=C(c1ccco1)N1CCN(C(=O)c2cc(-c3ccccn3)nc3ccccc23)CC1	-0.7	.	.	.	4.4	.	-4.9	-28.1	.	-3.3
CCOC(=O)N1CCN(C(=O)CSc2ccc(C(=O)OC)cc2[N+](=O)[O-])CC1	0.4	4.6	7.4	-5.7	-2.5	0.8	-2.0	-8.1	i	-1.8
Cc1ccnc(NC(=O)CC(c2ccccc2)c2ccccc2)n1	-10.0	3.0	5.4	-0.1	1.5	0.6	1.8	-9.4	i	5.2
CCCS(=O)(=O)N1CCN(c2ccccn2)CC1	-2.4	.	.	.	-4.9	.	1.5	0.8	.	-9.7
O=C(Nc1ccc(-c2nc3ccc(NC(=O)c4cccs4)cc3[nH]2)cc1)c1cccs1	-2.8	.	.	.	-6.5	.	23.8	.	.	-2.3
COc1ccccc1C(=O)C1CCCN(C(=O)CN2CCCCC2=O)C1 (stereo not drawn)	-11.2	16.9	8.7	1.9	-4.0	-2.9	-10.7	-4.3	i	-11.3
COc1ccc(C(C#N)N2N=C(C)CC2c2ccccc2)cc1OC (stereo not drawn)	-14.0	1.1	-1.0	-0.7	2.5	-0.6	-5.5	3.2	i	-2.5
O=C(COC(=O)c1cnccn1)c1cccc([N+](=O)[O-])c1	-6.0	23.1	6.5	0.4	1.2	-5.0	-6.3	-13.1	i	-6.7
CCCCCc1ccc(-c2ccc(/C=C/C(N)=O)cc2)nc1	-10.7	.	.	.	-0.3	.	-9.1	.	.	5.2
COc1ccc(S(=O)(=O)c2nnn(-c3cccc(OC)c3)c2N)cc1	-2.5	-7.5	0.0	-1.0	2.0	-0.9	1.6	-1.8	i	-14.2
COCCn1c(C)cc(C2=NNC(=NC(C)(C)C)SC2)c1C	0.7	18.8	14.0	0.0	1.8	2.6	2.1	-8.5	i	19.4
Cc1sc2ncnc(N3CCC(C(=O)Nc4nc(-c5cccs5)cs4)CC3)c2c1C	-5.6	-4.3	-11.3	1.8	2.0	-11.5	31.0	0.7	i	63.7*
COc1ccc2oc(=O)c(C(=O)NCc3ccccc3)cc2c1	28.7	-3.2	7.0	-0.6	-2.3	0.2	-10.3	-8.7	i	-6.4
CCC(=O)Nc1ccc(NC(=O)c2c(C)nc3ccccn23)cc1	-3.3	.	.	.	-1.0	.	-4.7	-7.2	.	-3.9
CCn1c(=O)c(C(=O)NCc2cccnc2)c(O)c2ccccc21	94.2*	.	.	.	1.4	.	-3.0	.	.	7.4
CCOC(=O)c1nc(NCCc2ccccc2)sc1C	-20.1	-8.4	-6.2	-7.2	6.0	1.0	48.2	-7.1	i	12.5
COc1ccc(/C=N/c2c(-c3ccco3)nc3ccccn23)cc1OC	30.3	.	.	.	2.3	.	2.0	-33.7	.	-21.9
O=C1Nc2ccc([N+](=O)[O-])cc2OC1CCN1CCN(c2ccccc2)CC1 (stereo not drawn)	-1.6	-7.3	-0.7	-0.2	-3.2	10.2	-6.2	94.4*	i	1.0
CCc1ccc(NC(=O)CS(=O)CC(=O)Nc2ccc(N3CCOCC3)cc2)cc1 (stereo not drawn)	-2.0	3.2	11.4	1.9	-3.0	1.1	.	3.7	i	-9.9
CC(C)=CC1C=C(C)C(C)C2C(=O)NNC(=O)C12 (stereo not drawn)	-0.9	.	.	.	-6.1	.	.	3.0	.	-4.4
CC(Oc1ccc2c3c(c(=O)oc2c1)CCCC3)C(=O)NCC1CCC(C(=O)O)CC1 (stereo not drawn)	.	-3.8	-4.6	-3.6	1.4	-0.9	2.0	-0.6	i	1.1
Cc1cc(=O)[nH]c(SCc2nc3ccccc3n2Cc2ccccc2)n1	40.5	.	.	.	?	.	3.0	-0.2	.	-7.1
O=C(COC(=O)Cc1ccccc1F)NC(=O)NC1CCCC1	.	-3.0	4.8	3.7	.	1.6	0.3	-4.9	i	.
O=C(Nc1nnc(-c2cc(Cl)ccc2Cl)o1)C1=COCCO1	30.5	12.1	3.3	2.5	?	-1.1	-1.2	.	.	-2.8
Cc1cccc(NC(=O)CCS(=O)(=O)c2ccccc2)n1	-1.7	3.6	2.1	1.8	0.3	-1.5	-2.5	-0.5	i	-8.2
